# Source: PubChem
# AID923: qHTS Assay for Allosteric/Competitive Inhibitors of Caspase-1: Spectroscopic Profiling in AFC Spectral Region | AID 923, 2007 | Potency, µM (highest dose often 57.5 µM), inactives show top-dose fluorescence increase, hits mostly activators | compound fluorescence, AFC spectral region (405/520 nm); almost no hit is shown here | actives 1.1% (n = 75,000); active = well fitted activation curve with a large enough effect; inconclusive = small, poorly fitted or top-dose-only effect;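 note: potency is the fitted concentration of half-maximal effect; 0% is about no effect; scaled to a free AFC standard on each plate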
#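 Compound autofluorescence profiled at 405 nm ex/520 nm em during kinetic caspase 1 run (50 nM enzyme, 5 uM Ac-WEHD-AFC, HEPES pH 7.5, 10 mM DTT). Titration up to 57 uM; baseline from regression intercept, normalized to AFC standard curve.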
# A488 fluor: compound autofluorescence in A488 spectral region. compound autofluorescence, A488 spectral region, dye equivalency; stronger effect = higher value. max dye equivalency, M. actives 0.1% (n = 59,000). AID 591; active = above 10 nM dye equivalent; inconclusive = 1 to 10 nM; inactive = 1 nM or less; about half of its hits are not listed in these tables;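 note: highest value over a series up to 38 µM; compound alone in buffer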
#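 Compound autofluorescence was read in 100 mM Tris pH 8.0 after 15 min at room temperature, ex 480 nm/em 540 nm. Intensities were converted to A488 dye-equivalent concentration using an on-plate six-point A488 standard curve.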
# Resorufin fluor: compounds fluorescent in resorufin spectral region; max dye-equivalent concentration, M; Compound fluorescence, resorufin region 547/598 nm, buffer; stronger effect = higher value; actives 0.04% (n = 59,000); active = above 10 nM dye equivalent; inconclusive = 1 to 10 nM; inactive = 1 nM or less; a few of its hits are not listed in these tables; note: highest value over a series up to 38 µM
#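 Compounds in 100 mM Tris, pH 8.0, incubated 15 min at room temperature, then fluorescence read at 547 nm excitation/598 nm emission. Signal converted to dye-equivalent concentration via an on-plate six-point resorufin standard curve, per compound concentration.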
# A647 autofl: A647 region autofluorescence | max dye-equivalent concentration, M | Compound fluorescence, A647 channel (570/671 nm), Tris buffer | 59,000 tested, under 10 active; active means above 1 µM dye equivalent; inconclusive means 0.1 to 1 µM; inactive means 0.1 µM or less;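 note: values scaled relative to a standard on each plate; highest value over a series up to 38 µM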
#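 Compounds pinned into 100 mM Tris pH 8.0, 15 min at room temperature, then read with 570 nm excitation/671 nm emission filters. Fluorescence normalized to an on-plate six-point Alexa 647 standard curve, giving dye-equivalent concentration per compound concentration.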
# TSHR agonist: agonists of human thyroid stimulating hormone receptor; P16473; HEK293-CNG-TSHR cells (CNG channel as cAMP sensor), membrane potential dye, cAMP; AID 926; actives 0.48% (n = 73,000); Potency, µM (top dose mostly 57.1 µM), for inactives: top-dose activation, hits mostly activators; active = well fitted activation curve of enough size with the parental cells flat; inconclusive = any curve in the parental cells; inactive = parental cells flat and receptor cells flat or falling; note: potency is the fitted concentration of half-maximal effect; % of control where 0% means no effect; weak receptor curves with flat parental cells got no call and are not listed
# Target sequence (P16473 whole entry, looked up): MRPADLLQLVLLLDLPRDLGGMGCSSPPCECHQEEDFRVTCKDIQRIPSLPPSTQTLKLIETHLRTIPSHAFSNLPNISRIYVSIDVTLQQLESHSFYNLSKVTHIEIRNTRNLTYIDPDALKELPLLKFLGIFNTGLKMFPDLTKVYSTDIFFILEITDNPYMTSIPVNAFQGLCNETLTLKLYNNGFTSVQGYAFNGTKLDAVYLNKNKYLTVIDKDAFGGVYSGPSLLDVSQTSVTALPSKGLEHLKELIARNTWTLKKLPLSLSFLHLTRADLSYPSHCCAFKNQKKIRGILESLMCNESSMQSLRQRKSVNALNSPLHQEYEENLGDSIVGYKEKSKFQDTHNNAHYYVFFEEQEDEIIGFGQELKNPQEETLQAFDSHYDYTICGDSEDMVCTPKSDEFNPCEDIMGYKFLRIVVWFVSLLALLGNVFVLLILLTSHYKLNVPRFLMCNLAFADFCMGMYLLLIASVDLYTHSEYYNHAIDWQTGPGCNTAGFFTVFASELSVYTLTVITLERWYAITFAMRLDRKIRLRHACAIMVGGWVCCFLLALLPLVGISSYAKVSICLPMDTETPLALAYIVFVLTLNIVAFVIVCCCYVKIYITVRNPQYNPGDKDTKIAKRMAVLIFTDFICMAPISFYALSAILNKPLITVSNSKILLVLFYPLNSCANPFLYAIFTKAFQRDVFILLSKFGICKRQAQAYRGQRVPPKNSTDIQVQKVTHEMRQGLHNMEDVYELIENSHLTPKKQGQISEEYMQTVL
#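 cAMP rise detected as CNG-channel membrane depolarization by fluorescent dye (emission 590 nm), 30 min after compound, following 60 min dye loading containing 100 uM RO 20-1724 at room temperature. Cells: TSHR/CNG HEK 293, with parental CNG HEK 293 as control.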
# * marks the source's active call; other numbers are inactive results; i = inactive; u = inconclusive; x = not tested or not shown; [ ] = remark or other dose. These rows are one share of the data. The share of hits here may be higher or lower than overall.
# Screens in order: AID923, A488 fluor, Resorufin fluor, A647 autofl, TSHR agonist
- COc1cc(OC)c(N2CC34C=CC(O3)C(C(=O)O)C4C2=O)cc1Cl (stereo not drawn)
 : 1.1%, i, i, 4.5e-09, 11%
- CS(=O)(=O)N1CCC(C(=O)NCc2ccncc2)CC1
 : 0.2%, i, i, 2.8e-08, 1%
- CC(C)Nc1c(N)c(=O)oc2ccccc12
 : 0.9%, i, i, 3.7e-08, 1%
- C=C1C(=O)C=C2CN(C(=O)c3ccccc3)[C@@](Cc3ccc(F)cc3)(C(=O)OC)[C@@H]12
 : 0.9%, x, x, x, u
- CC1CCN(CCCNC(=O)C2CC(=O)N(C3CCCCCC3)C2)CC1 (stereo not drawn)
 : 2.8%, i, i, 6.1e-09, 4%
- C=CCOc1ccc(/C(O)=C2/C(=O)C(=O)N(CCCN3CCOCC3)C2c2ccc(OC)cc2)cc1 (stereo not drawn)
 : x, i, i, 2.2e-08, x
- Fc1ccccc1CSc1nnc(-c2cccs2)o1
 : 0.3%, i, i, 2.7e-08, u
- Cc1ccc2c(CC(=O)NCc3ccc4c(c3)OCO4)coc2c1
 : -0.1%, i, i, 1.4e-08, u
- Cc1ccc(NS(=O)(=O)c2ccc(NC(=O)c3ccc(Br)o3)cc2)c(C)c1
 : -3.1%, i, i, 2.5e-08, u
- CCOc1ccc(NC(=O)CSc2nnc(-c3ccccc3Cl)n2Cc2ccco2)cc1
 : 0.6%, i, i, 7e-09, u
- COc1ccc(Cn2c(=O)[nH]c3cc(C(=O)N4CCN(Cc5ccccc5)CC4)ccc3c2=O)cc1
 : 0.8%, i, i, 8.5e-09, u
- O=C(CCS(=O)(=O)c1cccc2nonc12)N1CCOCC1
 : 0.9%, i, i, 1e-09, -1%
- O=C(O)CCC(=O)NC1CCCCC1NC(=O)CCC(=O)O (stereo not drawn)
 : -1.2%, x, x, x, -4%[11.4 µM]
- Cc1ccc(C(=O)NC2CCCc3ccccc32)o1 (stereo not drawn)
 : -1.2%, i, i, 3e-08, 15%
- COCCN1C(=O)C(=O)/C(=C(/O)c2cccc(OC)c2)C1c1ccncc1 (stereo not drawn)
 : -1.5%, i, i, 1e-09, -3%
- CCOc1ccc(OCC)c(NC(=O)CCn2cccc2)c1
 : 4.1%, x, x, x, 1%
- CCn1c(SCC(=O)Nc2cc(C)on2)nnc1-c1cccs1
 : -1.0%, i, i, 3.2e-09, 2%
- Cc1ccc(Nc2nc(N3CCOCC3)c3ccccc3n2)cc1
 : 1.3%, i, i, 1.3e-08, 16%
- CSC1=NCCN1C(=O)c1cccs1
 : 4.4%, x, x, x, 2%
- CC(=O)C1=C(O)C(=O)N(Cc2cccnc2)C1c1ccc(Cl)cc1Cl (stereo not drawn)
 : 0.0%, i, i, 1e-09, -1%
- O=C(CCCC1=NS(=O)(=O)c2ccccc2N1)N1CCN(c2ccccc2)CC1
 : 0.0%, i, i, 1e-09, -6%
- O=C(Cn1cnc2ccccc2c1=O)NCC(=O)N1CCN(c2ccccn2)CC1
 : 1.0%, i, i, 3.9e-08, 25%
- O=C(CN(C(=O)C1CSC(=O)C1)c1ccccc1F)NCc1ccc2c(c1)OCO2 (stereo not drawn)
 : -1.7%, i, i, 3.1e-09, 13%
- CCCCN(CC)S(=O)(=O)c1ccc2c(c1)CCCN2C(C)=O
 : 1.7%, i, i, 1e-09, 13%
- CCS(=O)(=O)NCCc1cc2cc(C)c(C)cc2[nH]c1=O
 : 0.5%, i, i, 1e-09, -4%
- Cc1cc2cc(CN(Cc3ccco3)C(=O)NCc3ccccc3)c(=O)[nH]c2cc1C
 : 0.3%, i, i, 2.1e-08, u
- CC(=O)c1ccc(NC(=O)C2CCC(C)NC2=O)cc1 (stereo not drawn)
 : 0.3%, i, i, 3.5e-09, -1%[11.4 µM]
- NC(=O)C1CCCN(Cc2ccc(Cl)cc2)C1 (stereo not drawn)
 : 0.8%, x, x, x, 2%
- C/C=C/c1ccccc1OCc1ccc(C(=O)O)o1
 : x, i, i, 8.5e-08, x
- c1ccc(Cc2nnc3sc(Nc4ccccc4)nn23)cc1
 : -2.9%, i, i, 1e-09, 11%

# Profiles, looked up by structure. Order of values: AID923	A488 fluor	Resorufin fluor	A647 autofl	TSHR agonist
# CCCCN(CC)S(=O)(=O)c1ccc2c(c1)CCCN2C(C)=O in the list: 1.7%	i	i	1e-09	13%
# NC(=O)C1CCCN(Cc2ccc(Cl)cc2)C1 (stereo not drawn) in the list: 0.8%	x	x	x	2%
# O=C(CN(C(=O)C1CSC(=O)C1)c1ccccc1F)NCc1ccc2c(c1)OCO2 (stereo not drawn) in the list: -1.7%	i	i	3.1e-09	13%
# Cc1cc2cc(CN(Cc3ccco3)C(=O)NCc3ccccc3)c(=O)[nH]c2cc1C in the list: 0.3%	i	i	2.1e-08	u

# The listing continues.
# Screens in order: AID923, A488 fluor, Resorufin fluor, A647 autofl, TSHR agonist
- CC(=O)C1=C(O)C(=O)N(c2ccc(C(=O)O)cc2)C1c1ccccc1 (stereo not drawn)
 : x, i, i, 2.2e-08, x
- CCC(C)NC(=O)CCNS(=O)(=O)c1ccc(Br)cc1 (stereo not drawn)
 : -0.2%, i, i, 1e-09, 2%
- Cc1ccccc1-n1c(Cn2c(=O)sc3ccccc32)nnc1SCC(=O)N1CCOCC1
 : 4.5%, x, x, x, 1%
- FC(F)(F)c1ccccc1-c1ccc2ncnc(NC3CC3)c2c1
 : 1.7%, i, i, 1e-09, u
- O=C1Nc2ccccc2C1=Nc1ccc(-c2nnc3n2CCCCC3)cc1
 : 3.5%, i, i, 1.3e-09, 2%
- Cc1ccc(-c2nnn(CC(=O)N(c3ccc(F)cc3)C(C(=O)NC3CCCC3)c3ccco3)n2)o1 (stereo not drawn)
 : 0.2%, i, i, 1e-09, 1%
- CC(Oc1ccc(Cl)cc1Cl)C(=O)NCCCn1ccnc1 (stereo not drawn)
 : -1.2%, i, i, 5.7e-09, -1%
- CCOC(=O)c1c(C)oc2c1c1c(c3ccccc32)OCN(Cc2cccnc2)C1
 : 10%, i, i, 2.8e-08, -18%
- CCOC(=O)CCN1C(=O)[C@H]2[C@H]3[C@H](O)[C@H](O)C/C(=N/OC/C=C(\C)CCC=C(C)C)[C@@H]3CC[C@@H]2C1=O
 : 0.6%[11.5 µM], x, x, x, -7%[11.4 µM]
- O=C(COC(=O)c1ccccn1)Nc1ncc(C(F)(F)F)cc1Cl
 : 0.8%, i, i, 4e-08, -3%
- CC(=O)NCCNc1cc(-c2ccccc2C(F)(F)F)ncn1
 : 0.3%, i, i, 1e-09, u
- CCCCn1c(NCCN(C)C)nc2c1c(=O)[nH]c(=O)n2C
 : -1.5%, i, i, 3.4e-08, -3%
- COc1ccc(C(C#N)Nc2ccccc2OC)cc1 (stereo not drawn)
 : 4.0%, x, x, x, 7%
- CC(C)OC(=O)C1C(=O)CC(C)(O)C(C(=O)OC(C)C)C1c1cccc(O)c1 (stereo not drawn)
 : 1.1%, i, i, 1e-09, u
- O=C(Nc1ccccc1)NC1CCN(CCCN2C(=O)c3ccccc3C2=O)CC1
 : 1.8%, i, i, 9e-09, 1%
- CC(C)C(NC(=O)c1ccc(S(=O)(=O)N2CCOCC2)cc1)c1nc2ccccc2[nH]1 (stereo not drawn)
 : 0.8%, i, i, 1e-09, 4%
- CNS(=O)(=O)c1ccc(NC(=O)C(CCSC)NC(N)=O)cc1 (stereo not drawn)
 : 0.4%, i, i, 7.2e-09, -1%
- COc1ccc(C2CC(c3ccc(OC)cc3)n3nc(N)nc3N2)cc1 (stereo not drawn)
 : -2.0%, x, x, x, 2%
- COC(=O)c1cn(C(=O)c2cccs2)c2ccccc12
 : 1.2%, i, i, 1.6e-08, u
- O=C1CC(c2ccccc2)CC(O)=C1C=NCCN1CCNCC1 (stereo not drawn)
 : 3.4%, x, x, x, 6%
- CCC(C)C(NC(=O)c1ccc(Cl)cc1)C(=O)O (stereo not drawn)
 : -0.3%, i, i, 1e-09, 0%
- CCn1cc(C(=O)OC(C)C(=O)Nc2c(C)n(C)n(-c3ccccc3)c2=O)c(=O)c2ccc(C)nc21 (stereo not drawn)
 : 1.0%, i, i, 1e-09, 0%
- O=C(NCc1ccc(F)cc1)C1CCC(=O)N1C1CCCCC1 (stereo not drawn)
 : -0.1%, i, i, 4.5e-09, 1%
- CCCN1Cc2cccc(C(=O)NCc3ccc4c(c3)OCO4)c2C1=O
 : -0.8%, i, i, 3e-08, 17%
- O=C(O)CC12C[C@H]3C[C@@H](CC(O)(C3)C1)C2
 : -1.0%[11.5 µM], i, i, 1e-09, 2%[11.4 µM]
- CC(=O)Nc1ccccc1NC(=O)CC(C)(C)C
 : -0.1%, i, i, 6.5e-09, -1%
- CCOC(=O)c1ccc(Nc2nnc3nc(C)cc(C)n23)cc1
 : 0.6%, i, i, 3.4e-08, -1%
- CCN(CC)C(=O)c1ccc(NS(=O)(=O)c2ccccc2)cc1
 : 0.0%, i, i, 3.5e-08, 1%
- COCCNC(=O)CN1CCOc2ccccc21
 : -0.4%, x, x, x, u
- Cc1nc(NCCO)c(C#N)c2c1COC(C)(C)C2
 : x, i, i, 1e-09, x
- O=C(c1ccc(Cl)cc1)N(Cc1cccs1)C1CCS(=O)(=O)C1 (stereo not drawn)
 : -2.3%, i, i, 4.3e-08, 15%
- CCSC1=NCN(CCCC(=O)O)CN1
 : 0.3%, i, i, 1e-09, -3%
- Cc1ccc(C)c(S(=O)(=O)c2c(N)n(/N=C/c3ccco3)c3nc4ccccc4nc23)c1
 : 15%, i, i, 1e-09, -4%
- CC(CCc1ccccc1)NC(=O)COC(=O)C1=COCCO1 (stereo not drawn)
 : -0.7%, i, i, 2.3e-09, 2%
- Cc1nn2c3c(cnc2c1-c1ccccc1)C(=O)CCC3
 : 3.2%, i, i, 1.3e-08, -24%
- CO[C@@H]1COC(=O)[C@H](C)NC(=O)C/C=C\[C@@H](C)[C@H](OC)COC(=O)[C@H](C)NC(=O)C/C=C\[C@H]1C
 : -0.4%[11.5 µM], x, x, x, 3%[11.4 µM]
- O=C(N/N=C1/C[C@@H](O)[C@@H](O)[C@@H]2[C@@H]3C(=O)N(C[C@@H]4CCCO4)C(=O)[C@H]3CC[C@@H]12)OCc1ccccc1
 : 1.2%[11.5 µM], x, x, x, -3%[11.4 µM]
- O=C(Cn1nnc(-c2ccccc2)n1)OCc1csc(-c2ccccc2)n1
 : 0.2%, i, i, 6.1e-09, 11%
- CC1CCCC(N2CCN(C(=O)c3ccc(F)cc3)CC2)C1 (stereo not drawn)
 : 0.2%, x, x, x, 5%
- O=C(CSc1nnc(Cn2c(=O)sc3ccccc32)n1-c1ccccc1)Nc1nccs1
 : -1.7%, x, x, x, 12%
- COc1ccccc1-c1c(NC(=O)c2ccco2)n(-c2ccccc2)nc(C)c1=O
 : 0.8%, i, i, 1.5e-09, 7%
- COc1ccccc1N1CCN(C(c2cc3cc(C)ccc3[nH]c2=O)c2nnnn2C2CCCC2)CC1 (stereo not drawn)
 : 2.4%, i, i, 2.6e-09, 5%
- COCCn1nnnc1C(c1cc2ccc(OC)cc2[nH]c1=O)N1CCN(C2CCCCC2)CC1 (stereo not drawn)
 : -0.3%, i, i, 1e-09, -1%
- CCOC(=O)CC(=O)c1cc(OC)c(OC)c(OC)c1
 : 1.9%, i, i, 1.2e-08, 8%[11.4 µM]
- CCOc1ccc(-n2c(SCC(=O)Nc3ccc(OC)cc3)nc3c(c2=O)SCC3)cc1
 : 0.5%, i, i, 6.3e-09, 0%
- O=C(OCC(=O)N1CCOCC1)c1ccc2c(c1)OCCO2
 : -0.5%, i, i, 3.2e-08, 24%
- COC(=O)C1C(=O)c2c([nH]c(C(=O)OC3CCCCCC3)c2C)CC1C (stereo not drawn)
 : -1.2%, x, x, x, u
- O=C(Nc1ccccc1)N1CC[C@@]2(CCCN(C(=O)c3ccco3)C2)C1
 : 4.2%, i, i, 1.2e-08, 7%
